CtBP-E1A blk: qHTS Assay for Inhibitors of the CtBP/E1A Interaction | CtBP / adenovirus E1A interaction (AlphaScreen) | 340,000 compounds, 0.49% hits | AID 651724, 2012 | activity change, % (no concentration beside the values) | AlphaScreen GST-E1A/His-CtBP binding, 1536-well; stronger effect = lower value; control for the full effect not named in the record; in the data active means activity change below about -65%; inconclusive means about -30% to -65%; inactive means above about -30%; further: on the % scale 0 is the no-effect control and ±100 the full control effect
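AlphaScreen with 125 nM GST-E1A and 125 nM His-CtBP (5X stocks) in Tris pH 8.0, 300 mM NaCl, BSA, Tween 20, TCEP. Compounds preincubated 2 h at 37 deg C, then glutathione donor/nickel acceptor beads added for 1 h at 37 deg C in dark.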
Sfp inh: qHTS Assay for Inhibitors of Bacillus subtilis Sfp phosphopantetheinyl transferase (PPTase) | Biochemical Sfp PPTase activity, qHTS | Potency, µM, for the others: max response, negative = inhibition, actives largely listed as inhibitors | 310,000 compounds, 3.5% hits | AID 1490, 2009; active means well fitted inhibition curve with a large enough effect; inconclusive means small, poorly fitted or top-dose-only effect, or another doubt; inactive means no such curve, though single readings can be large or run the other way;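 further: the enzyme is Sfp with the accession as filed and its product quenches rhodamine fluorescence; potency means the concentration at half of the fitted maximal effect; 0% = enzyme reaction without inhibitor and -100% = no enzyme wells; top concentration of the series not given in the record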
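Buffer: 50 mM Hepes-Na pH 7.6, 10 mM MgCl2, 0.01% Nonidet P-40, 0.01% BSA. Enzyme 15 nM, pre-exposed to compound 15 min; substrates then added and fluorescence change tracked over 30 min.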
PINK1 modulator: A Quantitative High throughput Screen to Identify Chemical Modulators of PINK1 Expression; PINK1 immunofluorescence, high-content cytometry, 24 h; Potency, µM (doses to about 76.6 µM), for inactives: top-dose activation (PINK1 increase), hits mostly activators; 410,000 compounds, 0.2% hits; AID 624263, 2012; active = well fitted activation curve with a large enough effect; inconclusive = small, poorly fitted or top-dose-only effect; inactive = flat fitted curve, though single readings scatter; cell line not stated here;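 further: potency means the concentration at half of the fitted maximal effect; % of control where 0% means no effect; nearly all actives have a fitted effect of over 65% in size; a mitochondrial uncoupler was the plate control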
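PINK1 protein, normally rapidly degraded, was detected by immunofluorescence after 24 hour compound treatment of a stable cell line. Titration data (5 concentrations) came from laser-scanning cytometry, with CCCP-treated wells as controls.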
TRPV1 PAM: HTS Assay for Compounds that Act as Potentiators of the Vanilloid Receptor 1. 320,000 compounds, 0.02% hits. potentiation, % at 8.33 µM. TRPV1-expressing cells, Fluo-8 calcium influx, capsaicin EC20 potentiation; host cell line not named in the record; control for the full effect not named in the record. Transient receptor potential cation channel subfamily V member 1 (Homo sapiens), Q8NER1; active means potentiation above 80%; inconclusive means 30% to 80%; inactive means below 30%; further: 0% is about no effect
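TRPV1-expressing cells were cultured overnight at 35.5C and loaded with Fluo-8 calcium dye for 40 to 90 min at room temperature. After a 10 s baseline, compound was added and calcium influx was read kinetically for 3 min (ex 480/em 520 nm).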
Six1-Eya2 inh: qHTS Assay for Inhibitors of the Six1/Eya2 Interaction. AlphaScreen GST-Six1/His-Eya2 binding, biochemical; stronger effect = lower value; control for the full effect not named in the record. AID 651725, 2012. 360,000 compounds, 0.56% hits. Homeobox protein SIX1 (Homo sapiens) + Protein phosphatase EYA2 (Homo sapiens), …. activity change, % (concentration not given with the values); in the data active = activity change below about -65%; inconclusive = about -30% to -65%; inactive = above about -30%; further: on the % scale 0 is the no-effect control and ±100 the full control effect
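Homogeneous AlphaScreen proximity assay pairing GST-Six1 with His-tagged Eya2 (added as 5X mix: 250 nM and 500 nM) in 50 mM Tris pH 8.0, 300 mM NaCl, 1 mM TCEP. Glutathione donor and nickel acceptor beads; 1 h, 37 °C, dark.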
D2 PAM: Beta-Arrestin HTS for Positive Allosteric Modulators of the Human D2 Dopamine Receptor: Potentiators. DiscoveRx D2 beta-arrestin cells, luminescence, 90 min; 100% = 57 uM dopamine signal. AID 624464, 2012. D(2) dopamine receptor (Homo sapiens), P14416. potentiation, % (test concentration not listed). 360,000 compounds, 0.23% hits; active = potentiation of 50% or more; inconclusive = 30% to 50%; inactive = 30% or less;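 further: compound concentration not given in the record; tested on top of an EC20 dose of dopamine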
Target sequence (P14416 whole entry, looked up): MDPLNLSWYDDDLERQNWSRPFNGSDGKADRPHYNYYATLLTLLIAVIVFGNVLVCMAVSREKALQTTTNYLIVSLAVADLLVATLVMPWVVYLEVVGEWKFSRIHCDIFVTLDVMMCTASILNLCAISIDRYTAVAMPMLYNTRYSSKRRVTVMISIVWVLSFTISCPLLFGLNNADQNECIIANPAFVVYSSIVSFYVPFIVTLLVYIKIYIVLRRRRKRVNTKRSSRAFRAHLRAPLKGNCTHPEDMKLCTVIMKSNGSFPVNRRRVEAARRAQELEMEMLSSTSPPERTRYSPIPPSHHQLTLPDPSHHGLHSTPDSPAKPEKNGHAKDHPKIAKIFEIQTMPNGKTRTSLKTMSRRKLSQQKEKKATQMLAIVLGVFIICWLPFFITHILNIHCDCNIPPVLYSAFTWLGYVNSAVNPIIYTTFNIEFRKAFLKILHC
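PathHunter beta-arrestin assay in DiscoveRx D2 cells. Compounds were added with an EC20 of dopamine (50 nM final) for 90 min at 37 deg C. Luminescence was read 1 h after detection reagent, with 57 uM dopamine as the EC100 control.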
D2 agonist: Beta-Arrestin HTS for Positive Allosteric Modulators of the Human D2 Dopamine Receptor: Agonists | D(2) dopamine receptor (Homo sapiens), P14416 | DiscoveRx PathHunter D2 beta-arrestin, luminescence, 90 min; 100% = 57 uM dopamine signal | activation, % (concentration not given with the values) | 360,000 compounds, 0.084% hits | AID 624465, 2012; in the data active = activation above about 40%; inconclusive = about 15% to 40%; inactive = below about 15%; further: the text of the record calls up to 30% inactive
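DiscoveRx PathHunter D2 beta-arrestin cells (2,100/well) attached overnight, then compound-stimulated 90 min at 37 C in HBSS/10 mM HEPES/0.1% Tween-20 buffer; beta-galactosidase complementation read by luminescence after 1 h at ambient temperature. Dopamine 57 uM final (EC100) as control.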
* marks the source's active call; other numbers are inactive results; u = inconclusive; x = not tested or not shown; & = joins results of further samples; [ ] = another dose, or the depositor's remark.

(1) N#Cc1ccc(-c2csc(NC(=O)/C=C/c3cccs3)n2)cc1
(2) CCCCOc1ccc(C(=O)N/C(=C\c2cccc([N+](=O)[O-])c2)C(=O)OCCC)cc1
(3) O=C(CNC(=O)c1ccccc1)OCC(=O)c1ccc(Cl)s1
(4) Cc1ccc(-n2c(C)c3c(C)nnc(C)c3c2C)cc1N
(5) O=C(CSc1nc(=O)n2cc(Cl)ccc2n1)Nc1ccc2c(c1)OCCO2
(6) COc1ccc(C(=O)Nc2ccccc2C(=O)NCCN2CCOCC2)cc1OC
(7) O=C(CN1CCN(Cc2ccccc2)CC1)Nc1cccc(C(F)(F)F)c1
(8) CCOC(=O)c1c(C)c(C(=O)NCc2ccc3c(c2)OCO3)c(C)n1CC
Compound | 1 | 2 | 3 | 4 | 5 | 6 | 7 | 8
CtBP-E1A blk | 7 | 0 | -16 | -2 | -5 | -1 | -3 | -7
Sfp inh | -18% | 13% | x | -2% | x | 11% | 13% | -6%
PINK1 modulator | 9.2% | 25% | 0.3% | -0.9% | -0.6% | 0.3% | u | 11%
TRPV1 PAM | -3 | -3 | -5 | -3 | 16 | -5 | u | 15
Six1-Eya2 inh | 7 | -3 | 5 | -5 | -11 | 2 | -1 | -2
D2 PAM | u | -5 | -9 | -2 | 22 | -8 | -14 | -14
D2 agonist | 9.1 | -4.8 | -7.5 | 1.5 | -0.7 | -3.0 | -1.6 | 1.3

(9) CCOc1ccc(C(C)=O)cc1COC(=O)CN1C(=O)NC2(CCCC2)C1=O
(10) CN(CCN1CCc2ccccc2C1)Cc1nc(Cc2ccccc2F)no1
(11) O=c1nc2s/c(=C\c3ccco3)c(=O)n2nc1Cc1ccc(F)cc1
(12) COC(=O)c1ccc(N2CCN(C)CC2)c(NC(=O)c2cccs2)c1
(13) CC1CC(C)CN(CCC(=O)Nc2ccc(Br)cc2)C1 (stereo unspecified)
(14) O=C(CC1CCCCC1)NC1CCCC1
(15) CCOc1ccc(/C(O)=C2\C(=O)C(=O)N(CCN(C)C)C2c2cc(OC)ccc2OC)cc1Cl (stereo unspecified)
(16) CCCCOc1ccccc1C(=O)NCCCC(=O)O
Compound | 9 | 10 | 11 | 12 | 13 | 14 | 15 | 16
CtBP-E1A blk | 4 | -5 | -80* | 0 | 0 | -4 | -6 | 1
Sfp inh | x | 21% | 45µM* | 15% | 7% | -1% | x | 28%
PINK1 modulator | -1.7% | -0.3% | -0.8% | 0.5% | -0.1% | -1.1% | 0.4% | 3.4%
TRPV1 PAM | 3 | -2 | 6 | 4 | -5 | -1 | x | 3
Six1-Eya2 inh | -4 | 0 | -81* | 8 | -11 | -2 | 2 | 1
D2 PAM | 1 | -15 | -8 | -6 | -22 | -4 | -3 | -5
D2 agonist | -4.5 | 0.8 | -0.4 | -3.4 | 0.3 | -1.4 | -7.5 | 1.5

(17) CC1CCCN(C(=O)CN(C)S(=O)(=O)c2cccc3nsnc23)C1 (stereo unspecified)
(18) O=S1(=O)CC(N2CCSCC2)CN1Cc1cn(Cc2cccc(C(F)(F)F)c2)nn1 (stereo unspecified)
(19) CC(=O)c1ccccc1OCCn1nnc(-c2ccc(C)cc2)n1
(20) Cc1ccc(OCCCN2C(=O)C(=O)c3cccc(C)c32)cc1
(21) O=S(=O)(N1CCCCCC1)N1CCN(S(=O)(=O)N2CCOCC2)CC1
(22) COC(=O)C1=C(C(=O)OC)C(C(=O)OC)C(C(=O)OC)C(C(=O)OC)(C(=O)OC)C(C(=O)OC)=C1C(=O)OC (stereo unspecified)
(23) Cc1ccc2c(=O)[nH]c(Nc3nc(C)cc(-c4ccccc4)n3)nc2c1
(24) Cc1csc2nc(CNS(=O)(=O)c3ccc4c(c3)OCCO4)cn12
Compound | 17 | 18 | 19 | 20 | 21 | 22 | 23 | 24
CtBP-E1A blk | 0 | 0 | 8 | -3 | 6 | 2 | 3 | 2
Sfp inh | 19% | x | -6% | u | 11% | x | -1% | 14%
PINK1 modulator | -1.8% | -1.0% | -0.5% | 1.2% | 3.3% | -6.9% | 7.5% | 2.4%
TRPV1 PAM | -3 | x | 13 | 2 | 5 | x | 4 | 3
Six1-Eya2 inh | -1 | -3 | 22 | -16 | 2 | 9 | 5 | 3
D2 PAM | -5 | x | -7 | -69 | 2 | 8 | -9 | -9
D2 agonist | -2.1 | x | 1.1 | -15 | -4.6 | -3.9 | -1.2 | -6.5

(25) CCN=C1SC(C(=O)Nc2ccc(OC)cc2)CC(=O)N1CC (stereo unspecified)
(26) Cc1ccc(C2=NN(C(=O)CSc3nccn3C)C(c3ccco3)C2)cc1 (stereo unspecified)
(27) CC(C)Sc1nc2c(c(=O)[nH]c(=O)n2C)n1Cc1ccc(Cl)cc1
(28) COc1ccc(C(=O)CSc2nn3c(=O)c(C(C)(C)C)nnc3s2)cc1
(29) Cc1c2ccccc2nc2ccccc12
(30) c1ccc(OCCOCCN2CCc3ccccc3C2)cc1
(31) Cc1cc(=O)oc2c(C)c(OC(C)C(=O)NCCCN3CCCC3=O)ccc12 (stereo unspecified)
(32) Cc1cccc(NC(=O)Cc2ccc(NC3=NC4CS(=O)(=O)CC4S3)cc2)c1 (stereo unspecified)
Compound | 25 | 26 | 27 | 28 | 29 | 30 | 31 | 32
CtBP-E1A blk | -2 | -14 | 0 | 2 | 6 | 1 | 3 | -1
Sfp inh | 1% | 2% | -27% | -17% | x | 16% | 28% | 7%
PINK1 modulator | 1.8% | 0.3% | -0.2% | -1.7% | 8.8% | -1.1% | -0.2% | -0.1%
TRPV1 PAM | -6 | -1 | 26 | 0 | x | -1 | u | -1
Six1-Eya2 inh | -2 | -6 | -6 | 9 | 9 | 0 | -4 | 3
D2 PAM | 1 | -10 | -3 | -26 | -7 | -9 | -2 | -5
D2 agonist | -4.7 | -0.5 | -0.8 | -1.8 | -5.3 | -5.0 | 6.3 | 2.4

(33) N#CCC(=O)Nc1ccc(C(=O)OCC(=O)Nc2cc(-c3ccccc3)nn2-c2ccccc2)cc1
(34) COc1ccccc1N1CCN(C(=O)C(C)NC(=O)c2cccc([N+](=O)[O-])c2)CC1 (stereo unspecified)
(35) Cc1cc(C)cc(N(CCC(=O)O)S(=O)(=O)c2ccc(Cl)cc2)c1
(36) O=C(Nc1ccc(F)cc1)N1CCN(c2ccc3nnc(-c4ccc(F)cc4)n3n2)CC1
(37) O=C(COC(=O)c1ccc([N+](=O)[O-])o1)NCc1ccc2c(c1)OCO2
(38) O=C(Nc1ccc(S(=O)(=O)N2CCOCC2)cc1)c1ccc(CN2CCc3ccccc3C2)cc1
(39) C=CCSc1nnc(NC(=O)C2=COCCO2)s1
(40) NS(=O)(=O)c1ccc(CCNC(=S)NC2CCCC2)cc1
Compound | 33 | 34 | 35 | 36 | 37 | 38 | 39 | 40
CtBP-E1A blk | 1 | -13 | 1 | u | 3 | -6 | -1 | x
Sfp inh | x | 2% | 32%[activator] | -6% | x | 23% | x | 10%
PINK1 modulator | 2.9% | 4.2% | 3.8% | 0.2%&2.5% | 2.1% | 1.9% | -1.1% | 3.0%
TRPV1 PAM | x | 18 | -2 | 0 | x | -1 | -22 | -6
Six1-Eya2 inh | -3 | 4 | -3 | u | -4 | -25 | 2 | 10
D2 PAM | 2 | -5 | -2 | -3 | 5 | -36 | -11 | -5
D2 agonist | 2.5 | 0.8 | -3.2 | 0.0 | 7.2 | 1.0 | -1.5 | -5.2

(41) Cc1ccc2[nH]c(=O)c(CN(CCCN(C)C)C(=O)Nc3cccc(Cl)c3)cc2c1
(42) N#Cc1cccc(NC(=O)c2cc(C3CCCCN3C(=O)c3ccc4c(c3)CCO4)on2)c1 (stereo unspecified)
(43) COc1cc(/C=N/NC(=S)NCCN2CCOCC2)cc(OC)c1O
(44) CCOc1cccc(C(=O)NC(=S)Nc2ccc3c(c2)OCCO3)c1
(45) COC(=O)c1cc(COC(=O)c2ccc3ccccc3n2)oc1C
(46) O=C(CSc1ncn[nH]1)NCc1ccccc1Cl
(47) Fc1ccccc1SCc1nnc(-c2ccccc2Br)o1
(48) CC(=O)NC(C)CCc1ccccc1 (stereo unspecified)
(49) O=C(/C=C/c1ccco1)N(Cc1ccccc1F)C1CCS(=O)(=O)C1 (stereo unspecified)
(50) Cc1noc(-c2ccccc2)c1NC(=O)Nc1ccc2nc([C@H]3C[C@H](O)[C@@H](CO)O3)[nH]c2c1
Compound | 41 | 42 | 43 | 44 | 45 | 46 | 47 | 48 | 49 | 50
CtBP-E1A blk | 2 | 1 | -9 | 12 | -3 | -1 | -20 | -19 | 1 | 0
Sfp inh | 7% | x | 22µM* | 1% | -21% | -28% | -30% | 23% | -21% | x
PINK1 modulator | 1.5%[38.3 µM] | 1.7% | 0.4% | 1.3% | -0.1% | 0.7% | 1.1% | 0.2% | -1.2% | 0.5%
TRPV1 PAM | 7 | x | 19 | 17 | -6 | 12 | -1 | -14 | 29 | x
Six1-Eya2 inh | 4 | -8 | -10 | 15 | -6 | 8 | 15 | 2 | -7 | -1
D2 PAM | -15 | 4 | -8 | 3 | -1 | -4 | -11 | -3 | -7 | 3
D2 agonist | -1.6 | -2.9 | -0.9 | 1.0 | -2.2 | -4.9 | 1.2 | 0.3 | -3.5 | 2.4

Source: PubChem BioAssay (National Center for Advancing Translational Sciences (NCATS))
